HCMV NEC inh = inhibitors of HCMV UL50-UL53 interaction, biochemical, HTRF | 190,000 compounds, 0.15% hits | inhibition, % (test concentration not listed) | HCMV UL50-UL53 nuclear egress complex (human cytomegalovirus) | normalized percent inhibition | AID 1918969, 2023;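 active = both replicates at 50% or more, plus weaker picks with an unusually low signal ratio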;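 note: stock transfer was 100 nL into about 20 µL; 0% = negative control wells and 100% = wells with untagged competitor protein; inactives centre near -12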
GIV-Gai inh = inhibitors of GIV peptide binding to Galpha-i3, primary screen, biochemical, fluorescence polarization, FITC-GIV GBA peptide, rat Galphai3. 90 min; hits give low values; scaled: aluminum fluoride 0%, vehicle 100%. Guanine nucleotide-binding protein G(i) subunit alpha-3 (Rattus norvegicus), P08753. percent of control (FP), % (concentration not given with the values). 210,000 compounds, 0.42% hits. AID 1224905, 2016;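 active = replicate mean at 85% of control or lower, very high polarization wells dropped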;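 note: wells of about 15 µL received 100 nL stock; the first replicate is given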
Target sequence (P08753 whole entry, looked up): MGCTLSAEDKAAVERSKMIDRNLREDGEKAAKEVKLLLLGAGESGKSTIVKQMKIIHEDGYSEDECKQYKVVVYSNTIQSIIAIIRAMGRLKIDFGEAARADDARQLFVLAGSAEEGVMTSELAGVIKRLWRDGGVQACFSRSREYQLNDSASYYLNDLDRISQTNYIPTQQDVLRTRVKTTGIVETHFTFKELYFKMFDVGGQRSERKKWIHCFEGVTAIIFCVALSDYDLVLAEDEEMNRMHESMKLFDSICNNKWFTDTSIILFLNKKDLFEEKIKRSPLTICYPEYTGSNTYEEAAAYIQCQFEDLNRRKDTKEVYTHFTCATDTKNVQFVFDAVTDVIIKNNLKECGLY
Sa growth inh = S. aureus growth inhibition at 42 and 30 °C, primary screen, LtaS inhibitor project, RN4220, two temperatures; 170,000 compounds, 0.53% hits; relative growth, % (concentration not given with the values); OD600, 20 h, 42 °C; hits give low values;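 active = growth at 42 °C up to 50% and 20 or more points under that at 30 °C, or under 10% at both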;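 note: 300 nL library stock went into each well; scaled to the means of positive and negative controls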
Sa growth inh second temp = second read-out of Sa growth inh, no call of its own (marks repeat the call); relative growth, %; measured here: growth at 30 °C;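 optical density after 20 h as mean of two plates; 100% = untreated growth and lower means inhibition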
An asterisk follows results filed as active; / = not tested or not shown; & = joins results of further samples.

SMILES	HCMV NEC inh	GIV-Gai inh	Sa growth inh	Sa growth inh second temp
COc1ccc(S(=O)(=O)N(CC(=O)NCCSc2ccccc2)c2ccc(Cl)cc2)cc1	-12.1	101.9	99.6	91.2
O=C(/C=C/c1ccccc1)C1=C(O)C(=O)N(CCO)C1c1ccc2c(c1)OCO2 (stereo not given)	-44.2	100.4	171.3	83.0
CC(C)(C)C(=O)NNc1ncnc2sccc12	-10.1	102.1	97.7	94.7
CC1CCN(S(=O)(=O)c2ccc3nc(N4CCN(c5ccccc5F)CC4)ccc3c2)CC1	/	105.1	102.9	90.2
COc1ccccc1-c1cc(NC(=O)COc2ccc(C)c(C)c2)n(-c2ccccc2)n1	/	103.3	100.3	97.0
CCCc1nc2c(o1)OC(N)=C(C#N)C2c1cccc(O)c1 (stereo not given)	-83.9	/	88.4	73.8
COCCN1C(=O)c2ccccc2C(C(=O)N2CCN(c3ccccc3OC)CC2)C1c1ccc(F)cc1 (stereo not given)	-7.1	107.9	86.8	94.5
O=C(O)C1CCN(C(=O)c2ccc3c(c2)OCO3)CC1	-16.0	102.8	103.8	81.8
S=c1[nH]nc(-c2ccccc2)n1N=Cc1cccs1	-35.1	/	84.5	75.9
CCc1ccc(NC(=O)c2ccc3c(c2)OCO3)cc1	-0.5	/	92.3	88.8
COc1ccc(CCNC(=O)COc2ccc(-c3noc(C)n3)cc2)cc1OC	-6.6	/	93.1	84.9
CCOCCCn1c(SCC(=O)/C(C#N)=C(\C)N)nc2ccccc2c1=O	-1.0	/	101.9	100.8
FC(F)(F)c1nnc2n1N=C(c1cc3ccccc3o1)CS2	-28.1	/	94.6	84.5
O=C(CSc1nnc2n1CCCCC2)N(Cc1cccs1)c1ccc2c(c1)OCCO2	-26.0	/	75.9	91.8
O=C(c1ccccc1)C(Sc1ncn[nH]1)c1ccccc1 (stereo not given)	/	98.3	102.6	82.5
CC1C(=O)OC2C1CCC1(C)CCC(=O)C(C)C21 (stereo not given)	-15.2	107.4	12.7	0.8
COc1ccccc1C(=O)NCCn1cc(SCC(=O)Nc2ccccc2F)c2ccccc21	2.5	101.7	94.7	77.7
COc1ccc(C(=O)N2CC(=O)Nc3ccc(C)cc3C2c2ccccc2)cc1OC (stereo not given)	-14.4	105.7	103.2	96.5
O=C1CCCc2cc(S(=O)(=O)N3CCC(C(=O)Nc4cccc(Cl)c4)CC3)ccc2N1	-5.8	103.6	/	/
C=CCSc1nc2ccccc2c(=O)n1CC(=C)C	3.6	101.8	92.8	85.3
Cc1nccc(-c2cccc(NS(=O)(=O)c3ccccc3C(F)(F)F)c2)n1	-43.5	107.1	91.9	82.3
CCOC(=O)CSc1nc2c(sc3ccccc32)c(=O)n1Cc1ccc(OC)cc1	/	103.8	92.5	83.4
COC(=O)Cn1c(=O)c2c(nc3n2CCN3c2cccc(C)c2)n(C)c1=O	/	101.0	125.7	95.8
Cc1cccc(-c2nnc3sc(NC(=O)COc4ccccc4F)nn23)c1	4.0	99.9	93.2	92.2
CC(C)c1ccc(NC(=O)COc2nncc3ccccc23)cc1	-11.3	/	93.0	88.0
O=C(O)CON=C1c2ccccc2-c2ccccc21	-58.3	/	101.1	77.1
CC1(C)OC(=O)C(=Cc2ccc(-c3ccc(S(N)(=O)=O)cc3)o2)C(=O)O1	-42.5	86.6	74.7	35.0
COc1ccccc1N(C)C(=O)c1cc(S(=O)(=O)N2CCCC2)cn1C	-23.3	102.8	81.5	83.1
Cc1ccc(NC(=O)c2ccc(-n3nc(C(F)(F)F)c4c3-c3ccoc3CC4)cc2)cc1	/	99.1	121.4	91.1
Cc1ccc(C(=O)Nc2cc(C)cc(C)c2)cc1	5.5	111.5	102.6	99.0
O=C(CN1CCC(n2nnc3ccccc32)CC1)Nc1ccccc1Cl	3.0	104.9	108.6	97.5
O=S1(=O)C=C2C(C1)SC(=S)N2C1CCS(=O)(=O)C1 (stereo not given)	/	101.6	112.2	90.6
CCC(=O)N1c2ccccc2CC1C(=O)NCCc1ccccc1Cl (stereo not given)	/	100.6	122.5	96.1
CCN(CC(=O)Nc1ccccc1OC)C(C)C(=O)c1[nH]c(C)c(C(=O)OC)c1C (stereo not given)	-28.5	/	73.2	67.8
Cc1ccc(Oc2coc3cc(OCC(=O)NC4CCCCC4)ccc3c2=O)cc1	3.8	96.5	98.4	92.4
CCn1c(=O)c(-c2noc(C(=O)N3CCN(C)CC3)n2)nn(-c2ccccc2)c1=O	-129.7	101.1	/	/
Cc1ccc2oc(C(=O)Nc3ccc(S(N)(=O)=O)cc3)cc(=O)c2c1	-9.8&-3.5	94.6&92.3	92.8	90.9
CCc1ccc(NS(=O)(=O)c2ccc3c(c2)SCC(=O)N3)cc1	/	98.5	77.3	74.3
Cc1ccc(/C=C2\SC(=S)N(CC(=O)Nc3nnc(C)s3)C2=O)cc1	-4.9	108.0	/	/
CCCCNC(=O)CSc1nc2n[nH]c(C)c2c(=N)n1-c1ccccc1CC	/	97.6	94.9	88.4
O=P(O)(CN1CCCCC1)C1CCCCC1O (stereo not given)	2.7	101.8	99.3	110.6
CC(Sc1nnc2c(Cl)cc(Cl)cn12)c1nnc(-c2cccs2)o1 (stereo not given)	-78.2	/	88.9	65.7
CCOC(=O)c1ccc(-c2coc3cc(OC(C)=O)c(CC)cc3c2=O)o1	/	105.5	85.0	78.0
CN1C(=O)C(=Cc2cccn2C(C)(C)C)C(=O)N(C)C1=S	10.8	104.6	107.8	83.6
COc1ccc(CN(C)Cc2nc3cc(Cl)ccc3c(=O)[nH]2)c(OC)c1	-2.8	/	96.8	106.1
COCCn1c(N)c(-c2nc3ccccc3[nH]2)c(O)c1N=Nc1ccc(F)c(F)c1	-18.5	/	99.4	99.9
CCOc1ccc(C2Nc3ccccc3C(C)(C)O2)cc1OC (stereo not given)	5.7	97.6	98.1	94.0
NNC(=O)CCN1CCCCC1	1.7	100.0	83.6	100.2
COc1ccc(S(=O)(=O)N(C(=O)c2ccncc2)c2ccc3oc(C)c(C(C)=O)c3c2)cc1	2.9	109.6	96.1	110.1
CCCS(=O)(=O)Nc1cc(-c2cn3ccc(C)cc3n2)ccc1C	7.2	99.6	94.1	68.8
Cc1ccccc1Cn1c(=O)n(CC2CCC(C(=O)NCc3ccccc3)CC2)c(=O)c2ccccc21 (stereo not given)	/	102.5	120.0	88.5
NC(=O)C1CCN(C(=O)CCC(=O)N2CCOc3ccc(Cl)cc32)CC1	-15.8	102.2	76.2	88.7
COc1ccc(CN(C)C(=O)CSc2nc(C)cs2)cc1OC	-4.5	/	94.2	88.7
CCOC(=O)c1c(C)[nH]c(C)c1S(=O)(=O)N(C)CC(=O)NCc1ccc(C)cc1	/	104.5	92.8	92.0
COc1cc(CN2CCCC2c2ccc(Cl)cc2)cc(OC)c1 (stereo not given)	-33.3	104.0	/	/
Cc1c(C(=O)Nc2ccccc2F)sc2ncnc(N(C)C3CCCCC3)c12	/	98.7	111.4	92.3
Cc1nc(-c2ccc3c(c2)CCO3)sc1C(=O)NC1CCS(=O)(=O)C1 (stereo not given)	-33.5	100.1	87.8	81.7
COc1ccccc1NC(=O)C1CC(=O)N(CCc2ccc(OC)c(OC)c2)C(=Nc2ccccc2)S1 (stereo not given)	-4.9	102.7	/	/
Cc1cc(N2CCN(c3ccccc3)CC2)n2nc(-c3cccnc3)nc2n1	-13.5	104.7	/	/
CS(=O)(=O)Nc1ccc2c(c1)nc1n2CCN(Cc2ccccc2)C1	/	102.2	100.2	77.0

(more compounds)
SMILES	HCMV NEC inh	GIV-Gai inh	Sa growth inh	Sa growth inh second temp
CC(C)n1cnc2nc(COc3ccc(Cl)cc3NC(=O)Nc3cccc(F)c3)cc(=O)n21	6.7	96.8	/	/
O=C(Nc1cccc(Br)c1)n1ncc2cc(Cl)ccc21	-12.9	98.5	/	/
CCCC1C(C#N)=C(N)Oc2n[nH]c(CC(=O)OCC)c21 (stereo not given)	-9.9	100.5	85.7	70.2
CC(C)(C)C1=CC=Nn2cnnc2S1	-25.1	103.7	99.9	89.2
O=C(CSc1ncccn1)Nc1nccs1	/	105.2	117.2	87.9
O=c1oc2c(Cl)cc(Cl)cc2cc1-c1nnc(Nc2ccc(F)cc2)s1	-8.1	107.4	/	/
CCOc1ccc(OC(=O)C2CCN(c3nc4ccccc4[nH]3)CC2)cc1	-29.3	95.8	/	/
COc1ccc(CN2CCN(C(=O)Cn3c(=O)c4cccn4c4cccnc43)CC2)c(OC)c1OC	-17.8	112.8	94.7	90.4
O=C(CSc1nccn1-c1ccc(F)cc1)Nc1ccccc1	1.6	98.8	76.9	75.4
CCN(C(=O)c1cc(S(=O)(=O)N2CCCC2)cn1C)c1ccc(OC)cc1	-23.6	98.1	98.8	85.9
CCOC(=O)c1ccc(N2C(=O)c3n[nH]c(-c4ccco4)c3C2c2ccc(OC)cc2OC)cc1 (stereo not given)	-7.8	106.4	104.2	72.3
CN1/C(=C/C(=O)C2CCC2)C(C)(C)c2ccccc21	10.0	/	102.7	103.2
O=C1OCCC1n1nnc(-c2ccc(F)cc2)n1 (stereo not given)	-21.9	/	88.3	84.5
Cc1noc(C)c1CSc1nc(N)c(-c2nc(-c3ccccc3)cs2)cc1C#N	-16.0	/	94.1	86.1
O=C(Cn1cccc1C(=O)c1ccccc1)NCCCN1CCc2ccccc2C1	6.2	102.4	94.4	74.8
Cc1ccc(NC(=O)CN(C)C(=O)Cc2ccccc2F)cc1	-22.6	/	82.6	89.1
CCOC(=O)C(C)ON1C(=O)c2ccccc2C1=O (stereo not given)	8.6	101.8	92.2	105.5
COc1cc(OC)cc(-c2noc(CSc3ccc(-c4ccc5c(c4)OCO5)nn3)n2)c1	-13.5	104.8	/	/
COc1ccc(CNC(=O)Cn2cnc3ccccc32)cc1OC	-17.9	/	82.3	91.9
CCOc1cccc(C2c3c(oc4ccc(F)cc4c3=O)C(=O)N2c2cc(C)ccn2)c1 (stereo not given)	-13.5	106.2	110.1	104.5

The last 3 compounds of the section above come first, to join the parts:
SMILES	HCMV NEC inh	GIV-Gai inh	Sa growth inh	Sa growth inh second temp
COc1cc(OC)cc(-c2noc(CSc3ccc(-c4ccc5c(c4)OCO5)nn3)n2)c1	-13.5	104.8	/	/
COc1ccc(CNC(=O)Cn2cnc3ccccc32)cc1OC	-17.9	/	82.3	91.9
CCOc1cccc(C2c3c(oc4ccc(F)cc4c3=O)C(=O)N2c2cc(C)ccn2)c1 (stereo not given)	-13.5	106.2	110.1	104.5
COc1ccc(C2(Cc3nc4ccccc4[nH]3)C(=O)c3ccccc3C2=O)cc1	-10.6	/	89.4	4.8
COc1cccc(-c2nc(SCC(=O)NC3CCCC3)c(-c3ccccc3)[nH]2)c1	-15.9	98.0	103.0	68.3
CC1CCN(c2nc3c(c(=O)n(Cc4ccccc4Cl)c(=O)n3C)n2C)CC1	-18.2	96.0	/	/
O=C(COc1ccc(Cl)cc1Cl)Nc1ccc(-c2nnc3n2CCCCC3)cc1	/	102.9	82.9	88.9
O=C1NC(=O)/C(=C/c2ccc3c(c2)OC(F)(F)O3)S1	-21.7&-26.0&-26.0&-41.6	102.1	/	/
O=C(NC(=O)C(F)(F)F)N1CCCc2ccccc21	/	106.6	89.1	85.6

A draw from above in order of heavy-atom count, high to low.
SMILES	HCMV NEC inh	GIV-Gai inh	Sa growth inh	Sa growth inh second temp
COc1ccccc1C(=O)NCCn1cc(SCC(=O)Nc2ccccc2F)c2ccccc21	2.5	101.7	94.7	77.7
COC(=O)Cn1c(=O)c2c(nc3n2CCN3c2cccc(C)c2)n(C)c1=O	/	101.0	125.7	95.8
COc1ccc(CN(C)Cc2nc3cc(Cl)ccc3c(=O)[nH]2)c(OC)c1	-2.8	/	96.8	106.1
S=c1[nH]nc(-c2ccccc2)n1N=Cc1cccs1	-35.1	/	84.5	75.9

Screening data: PubChem BioAssay, ICCB-Longwood Screening Facility, Harvard Medical School

Compounds as they come; 0.83% or so of the library scored in one or more.
